Bioassay records: PubChem BioAssay, Broad Institute
Yeast UUG start: modulators of start codon recognition fidelity in yeast | S. cerevisiae UUG-firefly luciferase reporter, luminescence/redox ratio | activity score, % at 18.7 µM | 350,000 tested, 0.13% active | AID 602363;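 active means replicate mean at a twofold rise or more, about +100% in these data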;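 further: firefly luciferase made from a UUG start codon reports start codon fidelity; reporter light over untreated wells divided by growth signal over untreated wells; some hits fall short of that in this replicate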
The depositor's hits bear a star. Some of the compounds tested; the hit share may differ from the screen's.

SMILES | Yeast UUG start
Cn1cnc(S(=O)(=O)N2CCCCN3[C@H](C2)[C@@H](c2ccc(-c4ccccc4F)cc2)[C@@H]3CO)c1 | -9.7
C[C@@H]1CN([C@H](C)CO)C(=O)c2cccc(NC(=O)C3CCOCC3)c2O[C@H]1CN(C)S(=O)(=O)c1cccs1 | -4.6
CN(C)C(=O)c1ccc(-c2ccc3c(c2)[C@@H]2[C@@H](CCN2C(=O)Cc2ccccn2)[C@H](CO)N3C)cc1 | 8.7
C[C@H]1CN([C@@H](C)CO)C(=O)Cc2cc(NC(=O)CCCN(C)C)ccc2O[C@H]1CN(C)S(=O)(=O)c1ccccc1 | -6.3
CN1c2ccc(-c3ccccc3)cc2[C@H]2[C@H](CCN2C(=O)Cc2ccccc2)[C@@H]1CO | -25.7
COCC(=O)N1CCCCN2[C@@H](CO)[C@H](c3ccc(-c4ccccc4)cc3)[C@@H]2C1 | 15.8
O=C(C[C@@H]1CC[C@H]2[C@@H](COC[C@@H](O)CN2Cc2ccc(F)cc2)O1)NCc1ccccc1Cl | -1.6
OC[C@H]1[C@H](c2ccc(-c3ccccc3)cc2)[C@H]2CN(Cc3ccccn3)CCCCN21 | -23.5
C[C@H](CO)N1C[C@H](C)[C@H](CN(C)C(=O)Nc2ccccc2)Oc2ccc(NS(C)(=O)=O)cc2CC1=O | -4.6
O=S(=O)(NC[C@@H]1[C@H](c2ccccc2)[C@@H](CO)N1CC1CC1)c1ccccc1 | 10.0
Cn1cnc(S(=O)(=O)N2CCCCN3[C@@H](CO)[C@H](c4ccc(-c5ccccc5)cc4)[C@@H]3C2)c1 | 21.3
CN(C)CCCNC(=O)C[C@H]1CC[C@@H]2[C@H](COc3ccc(NC(=O)c4ccccc4F)cc3C(=O)N2C)O1 | -8.4
CC(C)NC(=O)Nc1ccc2c(c1)C(=O)N([C@H](C)CO)C[C@@H](C)[C@H](CN(C)Cc1ccc3c(c1)OCO3)O2 | -4.8
Cc1ccc(S(=O)(=O)Nc2ccc3c(c2)C(=O)N([C@H](C)CO)C[C@@H](C)[C@@H](CN(C)CC2CC2)O3)cc1 | 0.5
CCC(=O)N1[C@@H](CO)[C@@H]2c3ccccc3N(S(=O)(=O)c3ccccc3)C[C@@H]21 | -7.0
CN(C)CC(=O)N1CCCCN2[C@H](CO)[C@H](c3ccc(-c4ccccc4)cc3)[C@H]2C1 | -6.5
Cc1cc(C(=O)Nc2cccc3c2O[C@@H](CN(C)S(=O)(=O)c2cn(C)cn2)[C@H](C)CN([C@@H](C)CO)C3=O)n(C)n1 | 0.1
CO[C@H]1CN(C)C(=O)c2cc(NC(=O)Nc3ccccc3)ccc2OC[C@H](C)N(C(=O)CN(C)C)C[C@H]1C | -3.4
CCCNC(=O)Nc1ccc2c(c1)C(=O)N(C)C[C@H](OC)[C@@H](C)CN(Cc1cncnc1)[C@H](C)CO2 | 0.9
Cc1noc(C)c1S(=O)(=O)N(C)C[C@H]1Oc2ccc(NS(=O)(=O)c3cccs3)cc2C(=O)N([C@H](C)CO)C[C@H]1C | -1.4
Cc1cccc(-c2ccc([C@@H]3[C@@H](CO)N4CCCCN(C(=O)NC(C)C)C[C@H]34)cc2)c1 | 0.4
CC(=O)N1CCCCN2[C@@H](CO)[C@@H](c3ccc(-c4cccc(C(=O)N(C)C)c4)cc3)[C@@H]2C1 | 6.4
Cc1noc(C)c1S(=O)(=O)Nc1ccc2c(c1)C(=O)N([C@@H](C)CO)C[C@@H](C)[C@H](CN(C)C(=O)Nc1cccc3ccccc13)O2 | -5.1
CC(C)C#Cc1ccc([C@H]2[C@@H](CO)N3CCCCN(S(=O)(=O)Cc4ccccc4)C[C@H]23)cc1 | -17.0
COc1ccccc1-c1ccc2c(c1)[C@H]1[C@H](CCN1C(=O)C1CCOCC1)[C@H](CO)N2 | -5.1
CC(C)NC(=O)N1[C@@H](CO)[C@@H]2c3ccccc3N(C(=O)Nc3ccc(Cl)cc3)C[C@@H]21 | -5.2
C[C@H]1CN([C@@H](C)CO)C(=O)c2cccc(NS(=O)(=O)c3cccs3)c2O[C@@H]1CN(C)C | 5.1
CCCN1C[C@H](C)[C@@H](OC)CN(C)C(=O)c2ccc(NC(=O)C3CC3)cc2OC[C@H]1C | 16.4
Cc1ccc(-c2ccc3c(c2)O[C@H](CN(C)Cc2ccc(F)cc2)[C@H](C)CN([C@@H](C)CO)S3(=O)=O)cc1 | 10.0
CCC(=O)N1[C@@H]2CN(C(=O)CC(F)(F)F)c3ccccc3[C@@H]2[C@@H]1CO | 28.5

Arranged by number of heavy atoms (low to high): part of the list above
SMILES | Yeast UUG start
CC(C)NC(=O)N1[C@@H](CO)[C@@H]2c3ccccc3N(C(=O)Nc3ccc(Cl)cc3)C[C@@H]21 | -5.2
COc1ccccc1-c1ccc2c(c1)[C@H]1[C@H](CCN1C(=O)C1CCOCC1)[C@H](CO)N2 | -5.1
CC(=O)N1CCCCN2[C@@H](CO)[C@@H](c3ccc(-c4cccc(C(=O)N(C)C)c4)cc3)[C@@H]2C1 | 6.4
CCCNC(=O)Nc1ccc2c(c1)C(=O)N(C)C[C@H](OC)[C@@H](C)CN(Cc1cncnc1)[C@H](C)CO2 | 0.9
CO[C@H]1CN(C)C(=O)c2cc(NC(=O)Nc3ccccc3)ccc2OC[C@H](C)N(C(=O)CN(C)C)C[C@H]1C | -3.4
Cc1noc(C)c1S(=O)(=O)N(C)C[C@H]1Oc2ccc(NS(=O)(=O)c3cccs3)cc2C(=O)N([C@H](C)CO)C[C@H]1C | -1.4
Cc1noc(C)c1S(=O)(=O)Nc1ccc2c(c1)C(=O)N([C@@H](C)CO)C[C@@H](C)[C@H](CN(C)C(=O)Nc1cccc3ccccc13)O2 | -5.1

The list continues:
SMILES | Yeast UUG start
O=C(Nc1ccc(F)cc1)N1C[C@H]2[C@@H](c3ccccc31)[C@H](CO)N2C(=O)c1ccncc1 | 55.5
CN(C)C(=O)c1ccc(-c2ccc3c(c2)[C@@H]2[C@@H](CCN2C(=O)C2CCC2)[C@@H](CO)N3C)cc1 | 7.1
Cc1cccc(-c2ccc([C@H]3[C@@H](CO)N4CCCCN(S(=O)(=O)c5cccc(C)c5)C[C@H]34)cc2)c1 | -16.1
Cc1noc(C)c1NC(=O)Nc1ccc2c(c1)C(=O)N([C@H](C)CO)C[C@@H](C)[C@@H](CN(C)C(=O)Nc1cccc3ccccc13)O2 | -27.2
C[C@H](CO)N1C[C@H](C)[C@H](CN(C)Cc2ccncc2)Oc2c(NS(=O)(=O)c3cn(C)cn3)cccc2C1=O | -16.6
C[C@H](O)C#Cc1ccc([C@@H]2[C@H](CO)N3CCCCN(C(=O)c4ccc5c(c4)OCO5)C[C@@H]23)cc1 | 2.4
O=C(Nc1ccccc1)N1C[C@@H]2[C@H](c3ccccc31)[C@@H](CO)N2C(=O)c1ccccc1F | -7.8
CCCNC(=O)C[C@H]1CC[C@H]2[C@@H](COc3ccc(NC(=O)NC(C)C)cc3C(=O)N2C)O1 | -8.2
COc1ccc(-c2ccc3c(c2)[C@H]2[C@H](CCN2C(=O)Cc2ccncc2)[C@H](CO)N3)cc1 | -8.2
CCCN1[C@@H]2c3ccc(C4=CCCC4)c(=O)n3C[C@@H]2[C@@H](CO)[C@@H]1C(=O)NCc1cccc(OC)c1 | 1.7
C[C@H]1CN([C@@H](C)CO)C(=O)c2cccc(NC(=O)Nc3ccccc3)c2O[C@@H]1CN(C)S(=O)(=O)c1ccc(Cl)cc1 | -11.5
C[C@@H]1CN([C@H](C)CO)C(=O)Cc2cc(NC(=O)Cn3cnnn3)ccc2O[C@H]1CN(C)Cc1ccncc1 | -16.1
CNC(=O)C[C@H]1CC[C@H]2[C@@H](COC[C@@H](O)CN2C(=O)Nc2ccc(Cl)c(Cl)c2)O1 | 4.8
CNC[C@@H]1Oc2ccc(NS(=O)(=O)c3ccc(C)cc3)cc2C(=O)N([C@@H](C)CO)C[C@H]1C | -3.2
CO[C@H]1CN(C)C(=O)c2cc(NC(=O)c3cccc(F)c3)ccc2OC[C@@H](C)NC[C@H]1C | -13.0
CCC(=O)N1C[C@@H](C)[C@@H](OC)CN(C)C(=O)c2cc(NC(=O)NC(C)C)ccc2OC[C@H]1C | 7.2
O=C(c1ccccn1)N1C[C@@H]2[C@H](c3ccccc31)[C@H](CO)N2C(=O)Nc1ccccc1 | -1.2
Cc1noc(C)c1S(=O)(=O)N(C)C[C@H]1Oc2c(NC(=O)C3CCCCC3)cccc2C(=O)N([C@@H](C)CO)C[C@H]1C | 17.9
CCCNC(=O)N1[C@H](CO)[C@@H]2c3ccccc3N(C(=O)C3CC3)C[C@@H]21 | 6.6
O=C(c1ccccn1)N1C[C@@H]2[C@H](c3ccccc31)[C@H](CO)N2CC1CCCC1 | 5.2
Cc1noc(C)c1NC(=O)Nc1ccc2c(c1)C(=O)N([C@@H](C)CO)C[C@H](C)[C@@H](CN(C)Cc1ccc3c(c1)OCO3)O2 | -5.0
COCC(=O)Nc1ccc2c(c1)C(=O)N(C)C[C@H](OC)[C@@H](C)CN(CC1CC1)[C@@H](C)CO2 | -3.1
CN1CCN(C(=O)C[C@@H]2CC[C@H]3[C@@H](COC[C@@H](O)CN3Cc3ccc4c(c3)OCO4)O2)CC1 | 2.7
Cc1ccc(S(=O)(=O)N(C)C[C@H]2Oc3ccc(NC(=O)C4CC4)cc3CC(=O)N([C@H](C)CO)C[C@H]2C)cc1 | 12.1
COc1ccc(S(=O)(=O)N(C)C[C@@H]2OCc3ccccc3-c3ccccc3C(=O)N([C@H](C)CO)C[C@@H]2C)cc1 | 3.1
CC(C)NC(=O)Nc1ccc2c(c1)C(=O)N([C@H](C)CO)C[C@H](C)[C@H](CN(C)S(=O)(=O)c1ccccc1)O2 | 2.9
C[C@@H]1CN([C@H](C)CO)C(=O)c2cc(NC(=O)NC3CCCCC3)ccc2O[C@@H]1CN(C)S(=O)(=O)c1ccccc1 | -6.0
Cc1cccc(-c2ccc([C@@H]3[C@@H](CO)N4CCCCN(C(=O)NC(C)C)C[C@@H]34)cc2)c1 | -8.0
COCC(=O)N1C[C@@H]2[C@H](c3ccccc31)[C@H](CO)N2C(=O)Nc1ccccc1Cl | 12.2
O=C(C1CCC1)N1C[C@@H]2[C@H](c3ccccc31)[C@@H](CO)N2C(=O)c1ccccc1 | 9.7
C[C@H]1CN([C@@H](C)CO)C(=O)c2cc(NC(=O)CCC(F)(F)F)ccc2O[C@H]1CN(C)C | -11.9
O=C(c1ccccn1)N1C[C@H]2[C@@H](c3ccccc31)[C@@H](CO)N2C(=O)Nc1ccccc1 | 1.5
CN1c2ccc(Br)cc2[C@@H]2[C@@H](CCN2C(=O)Nc2ccc(F)cc2)[C@@H]1CO | 7.5
COc1ccc(NC(=O)Nc2ccc3c(c2)C(=O)N([C@@H](C)CO)C[C@@H](C)[C@@H](CN(C)Cc2ccc(-c4ccccc4)cc2)O3)cc1 | 0.7
C[C@@H]1CN([C@H](C)CO)C(=O)c2cccc(NC(=O)Nc3ccc4c(c3)OCO4)c2O[C@@H]1CN(C)Cc1ccc(C(=O)Nc2ccccc2N)cc1 | -7.6
COc1ccc(C#Cc2ccc([C@@H]3[C@H](CO)N4CCCCN(S(=O)(=O)c5ccccc5)C[C@@H]34)cc2)cc1 | 22.7
C[C@@H]1CN([C@H](C)CO)C(=O)Cc2cc(NC(=O)Nc3ccc4c(c3)OCO4)ccc2O[C@H]1CN(C)Cc1ccncc1 | -7.3
C[C@H](CO)N1C[C@H](C)[C@H](CN(C)C(=O)Nc2ccccc2)OCc2ccccc2-c2c(n(C)c3ccccc23)C1=O | 8.2
COc1cccc(-c2ccc([C@@H]3[C@@H](CO)N4CCCCN(CC5CC5)C[C@H]34)cc2)c1 | -7.9
OC[C@H]1[C@H](c2ccc(C#Cc3ccccc3F)cc2)[C@@H]2CN(Cc3cncnc3)CCCCN12 | 5.1
O=C(c1ccccn1)N1C[C@H]2[C@@H](c3ccccc31)[C@@H](CO)N2C(=O)C1CC1 | -8.4
C[C@H]1CN([C@@H](C)CO)C(=O)c2cccc(NC(=O)C3CCCCC3)c2O[C@@H]1CN(C)C(=O)Nc1ccccc1 | 4.3
CNC[C@@H]1Oc2c(NS(=O)(=O)c3cccs3)cccc2C(=O)N([C@@H](C)CO)C[C@H]1C | 17.9
COc1ccc(S(=O)(=O)N(C)C[C@@H]2Oc3ccc(NC(=O)c4ccncc4)cc3C(=O)N([C@@H](C)CO)C[C@H]2C)cc1 | 2.6
O=C(Nc1ccccc1F)N1C[C@H]2[C@@H](c3ccccc31)[C@@H](CO)N2C(=O)Nc1ccccc1 | -7.2
C[C@H](CO)N1C[C@H](C)[C@@H](CN(C)C)Oc2ccc(NC(=O)Cn3cnnn3)cc2C1=O | -5.5
CN1[C@@H]2c3ccc(C4=CCCCC4)c(=O)n3C[C@H]1[C@H](CO)[C@H]2C(=O)N1CCCCC1 | 10.0
C[C@H](CO)N1C[C@H](C)[C@H](CN(C)Cc2ccc(C(=O)Nc3ccccc3N)cc2)Oc2ccc(NC(=O)Cc3cn(C)c4ccccc34)cc2C1=O | 11.2
COc1ccc(CN(C)C[C@@H]2Oc3ccc(NC(=O)c4ccncc4)cc3C(=O)N([C@@H](C)CO)C[C@@H]2C)cc1 | -12.3
C[C@@H]1CN([C@H](C)CO)C(=O)c2c(c3ccccc3n2C)-c2ccccc2CO[C@@H]1CN(C)C(=O)Nc1cccc(F)c1 | 8.2
CCCNC(=O)Nc1ccc2c(c1)OC[C@H](C)N(C(=O)C1CC1)C[C@H](C)[C@@H](OC)CN(C)C2=O | 3.6
CN(C)CC#Cc1ccc([C@@H]2[C@H](CO)N3CCCCN(S(=O)(=O)c4ccccc4F)C[C@@H]23)cc1 | 20.7
C[C@@H]1CN([C@@H](C)CO)C(=O)c2cc(NS(=O)(=O)c3cccs3)ccc2O[C@H]1CN(C)Cc1ccc(-c2ccccc2)cc1 | 24.6
C[C@@H]1CN([C@H](C)CO)C(=O)c2cc(NC(=O)Nc3ccc4c(c3)OCO4)ccc2O[C@@H]1CN(C)S(C)(=O)=O | 5.5
COc1ccc(S(=O)(=O)Nc2cccc3c2O[C@@H](CN(C)C)[C@H](C)CN([C@@H](C)CO)C3=O)cc1 | -9.3
